Screening results deposited in PubChem by National Center for Advancing Translational Sciences (NCATS).
gsp antag: qHTS for Antagonists of gsp, the Etiologic Mutation Responsible for Fibrous Dysplasia/McCune-Albright Syndrome: qHTS; gsp-mutant cells, cAMP HTRF, 30 min; control for the full effect not named in the record; Potency, µM (highest dose often 76.9 µM), for inactives: at the top dose activity change, negative = inhibition, usual class: inhibitors; hit rate 0.4% among 340,000; active = falling curve of any shape with a large fitted effect; inconclusive = falling curve, mostly with a smaller effect; inactive = flat or rising curve; cell line not stated here;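 further: intracellular cAMP measured with PDE inhibitor Ro 20-1724 present during compound exposure; potency means the concentration at half of the fitted maximal effect; on the % scale 0 is the no-effect control and ±100 the full control effect; nearly all actives have a fitted effect of over 65% in size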
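HTRF cAMP measurement after 30 min RT detection following 30 min, 37C compound treatment alongside […] (added as 300 uM solution) in G418-selected cells seeded at 2000/well and grown 16–24 h.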
gsp ag: qHTS for Agonist of gsp, the Etiologic Mutation Responsible for Fibrous Dysplasia/McCune-Albright Syndrome: qHTS. gsp mutant cells, cAMP HTRF, 30 min; control for the full effect not named in the record. Potency, µM (series often up to 76.9 µM), without a hit: at the highest dose activation (cAMP increase), actives largely listed as activators. hit rate 0.13% among 340,000. AID 624287, 2012; active = well fitted activation curve with a large enough effect; inconclusive = small, poorly fitted or top-dose-only effect, or another doubt; inactive = no such curve, though single readings can be large or run the other way; cell line not stated here;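 further: phosphodiesterase inhibitor Ro 20-1724 added with compounds to block cAMP breakdown; potency means the concentration at half of the fitted maximal effect; nearly all actives have a fitted effect of over 60% in size; about a fifth of the inactives were tested at one dose only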
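Cells stably selected in G418 were plated at 2000/well, grown 16-24 hr, then given compounds in DMSO with the PDE inhibitor […] (300 uM solution added) for 30 min at 37C; cAMP was read by HTRF.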
TRPV1 potentiator: HTS Assay for Compounds that Act as Potentiators of the Vanilloid Receptor 1. potentiation, % at 8.33 µM. Transient receptor potential cation channel subfamily V member 1 (Homo sapiens), Q8NER1. hit rate 0.02% among 320,000. TRPV1-expressing cells, Fluo-8 calcium influx, capsaicin EC20 potentiation; host cell line not named in the record; control for the full effect not named in the record; active means potentiation above 80%; inconclusive means 30% to 80%; inactive means below 30%; further: 0% is about no effect
Target sequence (Q8NER1 whole entry, looked up): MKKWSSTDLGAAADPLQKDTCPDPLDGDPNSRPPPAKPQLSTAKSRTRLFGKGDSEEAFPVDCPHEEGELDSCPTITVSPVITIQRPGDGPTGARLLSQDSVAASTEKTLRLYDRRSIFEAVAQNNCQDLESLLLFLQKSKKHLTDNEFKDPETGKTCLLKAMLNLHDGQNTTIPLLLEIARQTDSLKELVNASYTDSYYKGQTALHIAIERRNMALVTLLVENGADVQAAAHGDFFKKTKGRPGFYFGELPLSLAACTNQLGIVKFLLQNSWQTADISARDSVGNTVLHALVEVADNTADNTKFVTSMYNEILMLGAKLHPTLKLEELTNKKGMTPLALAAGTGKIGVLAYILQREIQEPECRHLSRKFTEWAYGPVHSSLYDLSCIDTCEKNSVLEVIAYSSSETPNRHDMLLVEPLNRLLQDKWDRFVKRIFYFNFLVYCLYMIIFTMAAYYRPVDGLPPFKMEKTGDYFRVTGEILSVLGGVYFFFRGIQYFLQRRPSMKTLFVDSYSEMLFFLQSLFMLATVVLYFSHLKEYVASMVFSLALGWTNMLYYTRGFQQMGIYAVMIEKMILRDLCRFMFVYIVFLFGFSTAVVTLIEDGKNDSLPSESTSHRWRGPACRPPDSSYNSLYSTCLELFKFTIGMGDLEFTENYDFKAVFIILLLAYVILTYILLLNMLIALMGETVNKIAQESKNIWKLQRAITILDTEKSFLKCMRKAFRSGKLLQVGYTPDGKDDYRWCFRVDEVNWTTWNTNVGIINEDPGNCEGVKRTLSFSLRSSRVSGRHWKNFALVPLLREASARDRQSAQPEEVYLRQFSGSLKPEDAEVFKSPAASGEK
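Cells expressing TRPV1 were dye-loaded with Fluo-8 and read kinetically: 10 s baseline, 3 min after compound (agonist portion), then 2 min after EC20 capsaicin (allosteric enhancer portion). Calcium-bound dye fluorescence at 480/520 nm.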
D2 potentiator: Beta-Arrestin HTS for Positive Allosteric Modulators of the Human D2 Dopamine Receptor: Potentiators; D(2) dopamine receptor (Homo sapiens), P14416; DiscoveRx D2 beta-arrestin cells, luminescence, 90 min; 100% = 57 uM dopamine signal; potentiation, % (concentration not given with the values); hit rate 0.23% among 360,000; AID 624464, 2012; active = potentiation of 50% or more; inconclusive = 30% to 50%; inactive = 30% or less;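 further: compound concentration not given in the record; tested on top of an EC20 dose of dopamine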
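PathHunter D2 cells, attached overnight at 37 deg C, received compound in DMSO plus dopamine at EC20 (50 nM final) for 90 min at 37 deg C. Beta-arrestin recruitment was read as luminescence after 1 h with detection reagent at ambient temperature.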
ClpP mod: qHTS Assay for Activators of ClpP; ATP-dependent Clp protease proteolytic subunit (Bacillus subtilis (strain 168)), P80244; purified B. subtilis ClpP, FRET peptide cleavage, 20 min; Potency, µM (doses to about 57.5 µM), without a hit: top-dose activity change, negative = active; hit rate 1.9% among 340,000; AID 651965, 2013; active = well fitted falling curve with a large enough effect; inconclusive = small, poorly fitted or top-dose-only effect; inactive = no such curve, though single readings can be large or run the other way; further: potency means the concentration at half of the fitted maximal effect; the source files actives as falling curves though it sought activators and does not explain the sign; nearly all actives have a fitted effect of over 65% in size; many hits overshoot -100%
Target sequence (P80244 whole entry, looked up): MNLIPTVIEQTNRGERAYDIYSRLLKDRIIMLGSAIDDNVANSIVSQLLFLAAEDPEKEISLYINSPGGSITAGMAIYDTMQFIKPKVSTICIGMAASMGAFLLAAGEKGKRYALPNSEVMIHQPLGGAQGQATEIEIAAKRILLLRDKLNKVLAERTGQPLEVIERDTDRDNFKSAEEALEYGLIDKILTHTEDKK
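Purified B. subtilis ClpP, 10 microg/mL final in Tris/HCl pH8 with KCl, BSA, glycerol and Tween-20, cleaved an Abz/nitrotyrosine-quenched decapeptide. Fluorescence (ex 320, em 430) was read at 0 and 20 min at room temperature. Delta was normalized to 5.8 microM ADEP and DMSO/no-enzyme controls.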
Sfp PPTase inh: qHTS Assay for Inhibitors of Bacillus subtilis Sfp phosphopantetheinyl transferase (PPTase); hit rate 3.5% among 310,000; 4'-phosphopantetheinyl transferase ffp (Bacillus subtilis), Q9F4F7; AID 1490, 2009; Biochemical Sfp PPTase activity, qHTS; Potency, µM, for inactives: max response, negative = inhibition, usual class: inhibitors; active means well fitted inhibition curve with a large enough effect; inconclusive means small, poorly fitted or top-dose-only effect, or another doubt; inactive means no such curve, though single readings can be large or run the other way;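 further: the enzyme is Sfp with the accession as filed and its product quenches rhodamine fluorescence; potency means the concentration at half of the fitted maximal effect; 0% = enzyme reaction without inhibitor and -100% = no enzyme wells; top concentration of the series not given in the record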
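Fluorescence-quenching assay with 15 nM Sfp, 5 uM rhodamine-CoA and 12.5 uM BHQ-2-labelled ybbR peptide in pH 7.6 Hepes/MgCl2 buffer. Enzyme was pre-incubated with compound for 15 min at room temperature. Rate was taken from the 30-min fluorescence change (525/598 nm).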
Menin MLL FP FL: qHTS Assay for Inhibitors Targeting the Menin-MLL Interaction in MLL Related Leukemias: Competition With Fluorescein Labeled MLL-derived Peptide; Fluorescence polarization, fluorescein-MLL peptide displacement from menin; FP activity change, % at 61.4 µM; 290,000 tested, under 10 active; AID 1766, 2009; inconclusive = falling polarisation curve, or a change in total fluorescence; inactive = total fluorescence flat and polarisation flat or rising; no compound was filed as active; the % refers to the polarisation; negative = inhibition;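 further: % of control where 0% means no effect; inhibitors lower the polarisation; unlabelled MLL peptide was the positive control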
* = called active by the depositor; ? = inconclusive; . = no result given; & = joins results of further samples; [ ] = remark or other dose.

SMILES	gsp antag	gsp ag	TRPV1 potentiator	D2 potentiator	ClpP mod	Sfp PPTase inh	Menin MLL FP FL
COc1ccccc1CNS(=O)(=O)c1cc2c3c(c1)C(C)C(=O)N3CCC2 (stereo not given)	12%	17%	-2	1	4.5%	18%	.
COc1cc(NC(=O)C2CC(=O)NC3=C2C(=O)CCC3)cc(OC)c1 (stereo not given)	-9%	8%	0	-10	0.2%	12%	11
Cc1cc(CN2C(=O)c3ccccc3C2=O)on1	-6%	-38%[inhibitor]	5	-15	0.3%	15%	-0.2
Cc1onc(-c2c(F)cccc2Cl)c1C(=O)NCc1ccccn1	6%	20%	7	-7	-0.7%	?	0.7
CCCC(=O)Nc1nnc(S(=O)(=O)N(C)Cc2ccco2)s1	-3%	-9%[15.4 µM]	-10	-7	.	45µM*	?
O=C(CC(=O)Nc1ccccc1)Nc1ccccc1	0%	-6%[15.4 µM]	.	-10	.	.	.
CCn1nc(C(=O)OCC(=O)N2c3ccccc3CC2C)c2ccccc2c1=O (stereo not given)	-9%	3%	-1	-9	-0.9%	25%	-0.6
CCC/C(O)=C1\C(=O)CC(C)(C)CC1=Nc1ccc(OC)cc1OC	?	?	-26	-13	-1.2%	-9%	2.0
CCCCNC(=O)OCC(CC)NC(=O)OCC(C)C (stereo not given)	-2%	?	-10	-6	1.6%	12%	4.6
COc1cc2c(cc1OC)C(COc1ccccc1OC)N(C(C)=O)CC2 (stereo not given)	16%	?	-1	-2	-0.1%	0%	7.2
Cc1ccc(/C=C2/NC(=O)N(Cc3ccccc3F)C2=O)s1	8%	9%	-5	-4	-3.4%	-18%	?
CC(=O)Nc1ccc(Cc2nc3ccccc3[nH]2)cc1	1%	-4%[15.4 µM]	2	-1	.	25%	-0.7
Cc1ccc(/C=C(\NC(=O)c2ccccc2)C(=O)NCCN2CCOCC2)o1	2%	5%	-14	-2	-0.5%	21%	-2.1
CCC1=Nc2cc(C(=O)NCCCOC)ccc2Sc2ccccc21	29%	-1%	-10	-2	2.2%	-4%	1.1
CC(C)C(NC(=O)CCNC(=O)c1ccc(C(C)(C)C)cc1)c1nc2ccccc2[nH]1 (stereo not given)	-13%	-73%[inhibitor]	6	-31	-1.4%	.	.
C=CCn1c(CCNC(=O)c2cccs2)nnc1SCC(=O)c1cccc([N+](=O)[O-])c1	-9%	3%	-2	-5	-2.2%	?	4.6
O=C(CCNS(=O)(=O)c1cccc2nsnc12)NCc1ccc(F)cc1	8%	-8%[15.4 µM]	3	-5	.	-1%	-1.7
NC(=O)COC(=O)C12CC3CC(CC(O)(C3)C1)C2	5%	7%[15.4 µM]	-4	-7	.	17%	-0.8
C#Cc1ccc([C@@H]2C=C(C(=O)N3CCOCC3)O[C@H](OCc3ccc(CO)cc3)C2)cc1	-13%	1%	.	-5	-1.2%	.	.
CN(CC(=O)Nc1ccccc1Cl)CC(=O)N1CCc2ccccc21	-1%	-17%	-7	-10	1.0%	.	.
Clc1nccnc1N/N=C/c1ccc(Br)cc1	-22%	-15%	-13	-2	-4.2%	-11%	-0.4
O=C(NC1CCCCC1)C1CCCN(S(=O)(=O)c2ccc(F)cc2)C1 (stereo not given)	6%	-1%[15.4 µM]	-2	-10	2.6%	10%	0.4
O=C1C2=C(SCCS2)C(=O)N1c1ccccc1	0%	?	8	-1	0.0%	5%	4.4
CSc1ccccc1NC(=O)N1CCCC(C(=O)c2ccc3c(c2)OCO3)C1 (stereo not given)	5%	8%	-1	-3	.	-2%	-3.5
CC(C)(C)c1nnc(NS(=O)(=O)c2cc(Cl)ccc2Cl)s1	-6%	6%	15	-1	-5.0%	17%	7.8
COc1ccccc1Oc1cc(-n2nc(C)cc2C)ncn1	-32%	18%[15.4 µM]	-7	-4	-1.6%	10%	-2.2
Nc1cc(OC(=O)c2ccco2)nn1S(=O)(=O)c1ccc(F)cc1	17%	3%	-4	4	0.2%	?	-0.2
COc1ccc(CCN2C(=O)CC(NC34CC5CC(CC(C5)C3)C4)C2=O)cc1OC (stereo not given)	-46%	-1%[15.4 µM]	-6	-8	0.1%	-13%	2.5
CCS(=O)(=O)Nc1ccc(-c2nnc(SCC(=O)OC)o2)cc1	-12%	-39%	16	-3	1.4%	12%	-0.5
NS(=O)(=O)c1ccc(CCNC(=O)COc2ccc3c4c(c(=O)oc3c2)CCC4)cc1	9%	?	5	-14	4.3%	16%	.
Cc1ccc(S(=O)(=O)NCC(=O)NCC(=O)NCCc2ccc(Cl)cc2)cc1C	.	7%	.	-11	-3.5%	.	.
Cc1ncc(CO)c(/C=N/Nc2ccc(C(F)(F)F)cn2)c1O	-4%	-11%[15.4 µM]	-3	-29	.	6%	?
COc1cccc(C2CC(=O)NC3=C2C(=O)CCC3)c1 (stereo not given)	-9%[15.4 µM]	13%	5	-6	-0.6%	12%	-1.6
Cc1ccc2nc3c(c(Nc4ccc5c(c4)OCCO5)c2c1)CCC3	13%	-14%	-23	-29	-2.2%	-13%	-0.9
CC1=NN(C(=O)COc2cc(C)ccc2C(C)C)C(O)(c2ccccc2)C1 (stereo not given)	-11%	-4%[15.4 µM]	18	-16	.	7%	-0.3
N#CC1=C(N)C2=CCCC[C@H]2[C@H](c2ccc(Br)cc2)C1(C#N)C#N	-7%	18%	-7	-45	7.2%	7.1µM*	?
COc1ccc(S(=O)(=O)NCC(c2cccnc2)N2CCN(c3ccccc3OC)CC2)cc1C (stereo not given)	-3%	-1%	-4	-18	-2.4%	10%	-1.1
COc1ccc(Nc2c3c(c(C#N)c4nc5ccccc5n24)CCC3)cc1	15%	-1%	22	?	-1.3%	1%	-3.5
Cn1cccc1C(=O)OCC(=O)N1CC(=O)Nc2ccccc21	3%	-36%[inhibitor]	-4	-22	-2.9%	0%	20
O=C(NNC(=O)C1CC(c2cccs2)=NO1)NC1CCCCC1 (stereo not given)	-8%	-5%[15.4 µM]	-10	-4	0.8%	-6%	0.5
COc1cccc(/C=N/NC(=O)c2ccc([N+](=O)[O-])cc2Cl)c1O	8%	-50%[inhibitor]	18	17	-2.1%	5%	4.1
Cc1noc(C)c1CSCC(=O)Nc1ccc(S(=O)(=O)C(F)F)cc1	-9%	27%[15.4 µM]	-22	3	.	.	.
COc1cccc(C(=O)NCC(c2ccc3c(c2)OCO3)N2CCN(c3ccc(F)cc3)CC2)c1 (stereo not given)	-1%	?	0	-29	-0.7%	.	.
CCOC(=O)/C=c1/s/c(=C/c2ccccc2OC)c(=O)n1CC(=O)N1CCOCC1	-16%	-9%	.	1	5.7%	.	.
Cc1cccc(N=Nc2c(C)[nH]n(-c3ccccc3)c2=O)c1	-12%	3%[15.4 µM]	2	-4	.	-8%	4.7
CC1(C(=O)NNC(=S)NCC2CCCO2)CC1(Cl)Cl (stereo not given)	10%	-27%	7	-10	0.3%	17%	-7.6
O=C(NC(=S)Nc1ccc2nc[nH]c2c1)c1ccccc1	-14%	-5%	1	9	-1.0%	-2%	1.5
O=C1ON=C(c2ccccc2)/C1=C/c1ccc(-c2ccccc2[N+](=O)[O-])o1	-3%	?	-5	-17	2.2%	?	.
COc1cccc(NC(=O)C2CC(=O)N(C)C(=Nc3cccc(F)c3)S2)c1 (stereo not given)	-9%	-6%	-11	-6	-3.1%	13%	0.8
CN=C1S/C(=C\c2cccn2-c2cccc(Br)c2)C(=O)N1C	0%	-1%	.	-13	16%	.	.
O=S1(=O)CCO[C@H]2Cc3ccccc3[C@H]2N1Cc1ccccc1	5%	2%	18	-3	-0.5%&0.2%	8%	-0.7
O=C(Nc1ccccc1C(=O)NCc1ccccc1)C1=CSCCO1	-7%	10%	26	-4	-12%	10%	.
Cc1nn(-c2ccccc2)c(C)c1/C=N/NC(=O)CSc1nc2ccccc2c(=O)n1-c1ccccc1	-14%	15%	-1	-6	-2.7%	-15%	-0.1
O=C(Nc1ccc(Cl)cc1Cl)c1ccc(-c2ccccc2)cc1	6%	-13%[15.4 µM]	7	-1	-0.4%	20%	2.0
CCOC(=O)c1ccc(NCn2c(=O)oc3ccccc32)cc1	-13%	-45%[inhibitor]	3	-1	-1.5%	9%	?
Cc1cc(Cl)ccc1C(=O)C1CCCN(C(=O)c2cncs2)C1 (stereo not given)	-9%	?	-2	-2	1.6%	12%	-1.7
CCN(CC)C(=O)c1sc2nc(N3CCOCC3)c3c(c2c1N)CCCC3	14%	?	-9	-9	25µM*	45µM*	1.3
CCOC(=O)c1sc(NN=C(C(=O)OC)C(=O)OC)c(C(=O)OCC)c1C	-4%	31%	1	-8	-2.3%	?	1.2
C=CCn1c(SCC(=O)N2CCOCC2)nc2sc(CC)cc2c1=O	-4%	17%	.	-4	-2.7%	.	.
O=C(/C=C/c1ccc2c(c1)S(=O)(=O)N(Cc1ccccc1)[C@H]2CC(=O)N1CCOCC1)N1CCOCC1	-1%	-28%	.	-6	-0.1%	.	.
C=CCOc1cccc(C2C(C(=O)c3ccco3)=C(O)C(=O)N2CCN2CCOCC2)c1 (stereo not given)	19%	-9%	19	-4	-1.2%	-15%	5.8
Cc1onc(-c2ccccc2Cl)c1C(=O)NCCn1ccc2ccccc21	-18%	11%	-7	-2	0.4%	20%	1.6
